Screening results as filed in PubChem.
GRP78 ERSR act: induces the endoplasmic reticulum stress response in human glioma cells; U87-MG GRP78 promoter luciferase reporter, 16 h; Potency, µM, for the others: at the top dose activation, usual class: activators; actives 0.02% (n = 420,000); AID 602332; further: potency means the concentration at half of the fitted maximal effect; series mostly up to about 76 µM; % of control where 0% means no effect; nearly all actives have a fitted effect of over 35% in size
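Stably transfected U87-MG glioma cells carrying a GRP78-based luciferase sensor; 16 h compound incubation. Luminescence end-point read 10 min after Bright-Glo addition at room temperature.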
TrxR1 substrate: substrates of rat thioredoxin reductase 1. actives 0.01% (n = 390,000). purified TrxR1 substrate turnover, NADPH consumption readout. Potency, µM (highest dose often 114 µM), for the others: at the top dose activity change, negative = substrate turnover; further: potency means the concentration at half of the fitted maximal effect; on the % scale 0 is the no-effect control and ±100 the full control effect; nearly all actives have a fitted effect of over 50% in size
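Rat TrxR1, dispensed at 90 nM, was prereduced with 400 uM NADPH (final) for 5 min at ~22 deg C, then incubated with compound 15 min before 400 uM selenite. A first-read NADPH fluorescence drop versus no-compound background flagged substrates.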
PI4K2A block: PI4K2A (human) kinase inhibition; purified PI4K2A, ADP-Glo luminescence, 1 h; active compounds read low; actives 0.13% (n = 420,000); AID 1346378; activity change, negative = inhibition, % at 76.9 µM; in the data active means activity change below about -50%; inconclusive means mostly about -30% to -49%;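 further: -100% = wells without enzyme as full effect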
Target sequence (Q9BTU6 whole entry, looked up): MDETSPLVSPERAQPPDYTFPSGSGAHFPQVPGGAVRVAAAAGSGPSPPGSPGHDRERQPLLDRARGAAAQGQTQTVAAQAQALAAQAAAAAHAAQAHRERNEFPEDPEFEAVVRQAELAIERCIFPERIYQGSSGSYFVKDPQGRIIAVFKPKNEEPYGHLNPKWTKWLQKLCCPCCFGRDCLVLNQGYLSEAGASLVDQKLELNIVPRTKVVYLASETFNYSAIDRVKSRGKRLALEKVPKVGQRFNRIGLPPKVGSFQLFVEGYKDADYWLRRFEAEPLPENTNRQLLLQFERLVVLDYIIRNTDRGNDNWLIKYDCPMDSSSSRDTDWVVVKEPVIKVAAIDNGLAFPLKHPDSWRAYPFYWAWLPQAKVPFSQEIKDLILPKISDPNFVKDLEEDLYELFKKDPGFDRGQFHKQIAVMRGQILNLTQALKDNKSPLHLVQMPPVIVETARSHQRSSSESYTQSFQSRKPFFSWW
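PI4K2A activity was measured by ADP-Glo luminescence: enzyme (4 ug/mL stock) and phosphatidylinositol (1.2 mM stock) in Tris pH 7.5/MgCl2/EGTA/Triton X-100 buffer were reacted with ATP (300 microM stock) for one hour at ambient temperature.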
USP1-UAF1 inh: blocks the human USP1/UAF1 deubiquitinase complex; actives 0.23% (n = 390,000); Potency, µM (titrated, usually from 57.1 µM), for the others: top-dose activity change, negative = inhibition, usual class: inhibitors; O94782; recombinant USP1/UAF1, Ub-Rhodamine cleavage fluorescence; further: potency means the concentration at half of the fitted maximal effect; on the % scale 0 is the no-effect control and ±100 the full control effect; nearly all actives have a fitted effect of over 60% in size; inactives centre near -12
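In this screen, compounds sit with the deubiquitinase complex (1nM) for 15 min at room temperature before Ub-Rho is added at 150nM final. Fluorescence rise is then followed for 6 reads every 60 seconds.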
Vif-A3F inh: blocks the Vif interaction with APOBEC3F. HeLa A3F-eYFP + Vif (tagged APOBEC3F with the HIV-1 protein that degrades it), YFP fluorescence increase. Potency, µM (titrated, usually from 46.1 µM), inactives show at the top dose activity, negative = active. actives 0.2% (n = 390,000); further: potency means the concentration at half of the fitted maximal effect; % of control where 0% means no effect; nearly all actives have a fitted effect of over 65% in size
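HeLa cells stably expressing Vif plus C-terminally eYFP-tagged A3F were seeded, incubated overnight at 37 deg C, dosed with compound, incubated overnight again at 37 deg C. Yellow fluorescence (Ex 488/Em 500-530) reported blocked Vif-mediated A3F-eYFP degradation.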
mIDH1 inhibitor: blocks human mutant IDH1 R132H enzyme. O75874. IDH1-R132H enzyme, NADPH consumption, diaphorase/resazurin fluorescence. Potency, µM (titrated, usually from 76.6 µM), for the others: at the highest dose activity change, negative = inhibition, hits mostly inhibitors. actives 0.093% (n = 390,000); further: potency means the concentration at half of the fitted maximal effect; on the % scale 0 is the no-effect control and ±100 the full control effect; nearly all actives have a fitted effect of over 65% in size
Target sequence (O75874 whole entry R132H, stated change not applied): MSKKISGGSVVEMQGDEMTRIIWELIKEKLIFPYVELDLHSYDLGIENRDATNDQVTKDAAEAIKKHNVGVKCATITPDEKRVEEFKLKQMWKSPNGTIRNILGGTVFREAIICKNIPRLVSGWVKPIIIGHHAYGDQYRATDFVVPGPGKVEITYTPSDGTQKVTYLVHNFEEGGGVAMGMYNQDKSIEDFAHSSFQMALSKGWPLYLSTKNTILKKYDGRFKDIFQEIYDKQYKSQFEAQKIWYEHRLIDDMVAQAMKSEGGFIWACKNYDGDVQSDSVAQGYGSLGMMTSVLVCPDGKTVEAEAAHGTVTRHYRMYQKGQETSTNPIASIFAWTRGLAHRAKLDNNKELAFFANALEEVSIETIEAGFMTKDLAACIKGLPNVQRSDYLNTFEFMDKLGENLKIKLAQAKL
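IDH1-R132H (0.5 ug/mL) preincubated 30 min with compound, then NADPH (0.016 mM) and alpha-KG (2 mM) added; 80 min at RT, pH 7.5. Remaining NADPH coupled via diaphorase/resazurin to fluorescence (540/590 nm); concentration-response curves normalized to no-enzyme control.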
LDHA inh: LDHA (human) enzyme inhibition. activity change, % (values are at about 110 or 230 µM). purified LDHA, NADH/diaphorase-resazurin fluorescence; active compounds read low. actives 0.15% (n = 480,000). AID 1347041. P00338; in the data active means activity change below about -30%; inconclusive means mostly about -25% to -30%;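 further: plate controls were DMSO wells for no effect and wells without enzyme for full effect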
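Human LDH5 (2 nM) was incubated with 0.06 mM NADH and 0.2 mM pyruvate for 5 min at room temperature in Tris pH 7.4. Remaining NADH was coupled through diaphorase/resazurin, and resorufin fluorescence was read at 0 and 20 min.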
Vif-APOBEC3G blk: blocks the Vif interaction with human APOBEC3G. Q9HC16. HeLa A3G-eYFP + Vif (tagged APOBEC3G with the HIV-1 protein that degrades it), YFP fluorescence, overnight. Potency, µM (highest dose often 46.1 µM), without a hit: top-dose activity, negative = active, usual class: inhibitors. actives 0.076% (n = 410,000);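 further: potency means the concentration at half of the fitted maximal effect; on the % scale 0 is the no-effect control and ±100 the full control effect; nearly all actives have a fitted effect of over 60% in size; hits raise eYFP signal because A3G escapes Vif-driven loss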
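Read-out is eYFP fluorescence (Ex 488/Em 500-530) from Vif-expressing HeLa A3G-eYFP cells; more signal means A3G escaped Vif-mediated degradation. Cells plated overnight, compound pinned in, incubated overnight at 37 deg C.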
An asterisk follows results filed as active; ? = inconclusive; . = no result given; & = joins results of further samples; [ ] = another dose, or the depositor's remark. Unless noted, the call rests on the fitted dose curve; in most records, active means well fitted curve in the direction sought with a large enough effect; inconclusive means small, poorly fitted or top-dose-only effect, or another doubt; inactive means no such curve, though single readings can be large; an effect the other way counts as inactive or inconclusive.

Values run as follows: GRP78 ERSR act	TrxR1 substrate	PI4K2A block	USP1-UAF1 inh	Vif-A3F inh	mIDH1 inhibitor	LDHA inh	Vif-APOBEC3G blk
1) O=C(O)CSc1ccc2nnc(-c3cccnc3)n2n1
  -3%&0%	-2%&-1%	-7	-10%	-6%	-3%	-2&-8	0%&1%
2) O=C(Cc1ccccc1)NC1CCN(S(=O)(=O)c2cccc(F)c2)CC1
  -8%	-9%	2	-3%	-1%	0%	-6	1%
3) NS(=O)(=O)c1ccc(NC(=O)CSc2nnc(COc3ccccc3Cl)n2C2CC2)cc1
  -5%	17%[57.1 µM]	-2	-7%	-2%	-1%	-5	0%
4) Fc1cccc(CSc2ccc3nnc(-c4cccnc4)n3n2)c1
  -4%	6%[57.1 µM]	-4	-2%	-4%	8%	-4	-3%
5) CC1=CC(C)(C)Nc2ccc(OC(=O)c3ccco3)cc21
  -13%	2%	1	?	?	9%	-1	11µM*
6) Cc1nc2ccc(NC(=O)N3CCSCC3)cc2s1
  -2%	13%[57.1 µM]	-2	-7%	1%	6%	7	2%
7) O=C(O)CCCCCNc1ncnc2ccc(Br)cc12
  -1%	-6%	11	-18%	15%	-9%	-2	2%
8) CCOc1ccc2nc(SCC(=O)Nc3ccc(F)cc3)nc(-c3ccccc3)c2c1
  1%	29%	-1	-3%	12%	7%	4	7%
9) Cc1ccc(C(=O)Nc2nc3ccc(S(=O)(=O)N4CCCC4)cc3s2)cc1
  .	1%[57.1 µM]	-19	-22%	.	.	1	.
10) CN(C(=O)CCc1ccccc1)c1nnc(-c2ccncc2)s1
  -3%	5%	2	-22%	5%	13%	-5	3%
11) COc1ccc(NC(=O)CSc2nnc(Cc3cccs3)n2C)cc1
  -2%	-2%[57.1 µM]	-1	-8%	-9%	0%	-13	0%
12) CCc1ccc(CNC(=O)c2sc3ncnc(N(C)C4CCCCC4)c3c2C)cc1
  -4%	-7%[57.1 µM]	-4	-9%	8%	-8%	2	4%
13) CCC(=O)Nc1ccc(-c2nn3c(C)nnc3s2)cc1C
  -2%	10%	-4	-3%	-4%	9%	-8	-4%
14) O=C1C(=O)N(Cc2ccncc2)C(c2ccccc2F)/C1=C(\O)c1ccc2c(c1)OCCO2 (stereo unspecified)
  -3%	-10%	-5	-16%	7%	8%	-1	0%
15) Cc1c(C(=O)NCc2ccccc2Cl)sc2ncnc(N(C)C3CCCCC3)c12
  -1%	2%[57.1 µM]	0	2%	0%	1%	-7	1%
16) Cc1ccc(NC(=S)Nc2cccc(-c3n[nH]c(=S)o3)c2)cc1
  2%	8%	3	-8%	-2%	-6%	-11	1%
17) CC(=O)c1sc(C(C)(C)C)cc1NC(=O)c1ccccc1C(=O)O
  -3%	-6%[57.1 µM]	1	3%	7%	-2%	-2	0%
18) CCOC(=O)C1CCN(C(=O)CCc2nnc3ccc(NCCCN4CCCC4=O)nn23)CC1
  -3%	3%	3	-20%	-4%	-4%	-7	0%
19) Cc1cccc(-c2nnn3c2nc(NCc2ccccc2)c2ccccc23)c1
  3%	18%	15	-29%	-12%	-4%	-2	-4%
20) Cc1ccc(C2C(C(=O)c3cccs3)=C(O)C(=O)N2c2cccc(C)n2)cc1 (stereo unspecified)
  -2%	4%[57.1 µM]	-8	0%	-1%	5%	-4	-1%

Looked up above:
entry 3 in PI4K2A block reads -2
entry 2 in mIDH1 inhibitor reads 0%
entry 7 in mIDH1 inhibitor reads -9%
entry 13 in TrxR1 substrate reads 10%
entry 18 in USP1-UAF1 inh reads -20%
entry 15 in GRP78 ERSR act reads -1%

3 compounds drawn at random from the list so far, as already listed:
Values run as follows: GRP78 ERSR act	TrxR1 substrate	PI4K2A block	USP1-UAF1 inh	Vif-A3F inh	mIDH1 inhibitor	LDHA inh	Vif-APOBEC3G blk
18) CCOC(=O)C1CCN(C(=O)CCc2nnc3ccc(NCCCN4CCCC4=O)nn23)CC1
  -3%	3%	3	-20%	-4%	-4%	-7	0%
6) Cc1nc2ccc(NC(=O)N3CCSCC3)cc2s1
  -2%	13%[57.1 µM]	-2	-7%	1%	6%	7	2%
20) Cc1ccc(C2C(C(=O)c3cccs3)=C(O)C(=O)N2c2cccc(C)n2)cc1 (stereo unspecified)
  -2%	4%[57.1 µM]	-8	0%	-1%	5%	-4	-1%

More entries follow:
Values run as follows: GRP78 ERSR act	TrxR1 substrate	PI4K2A block	USP1-UAF1 inh	Vif-A3F inh	mIDH1 inhibitor	LDHA inh	Vif-APOBEC3G blk
21) Cc1ccc(C(=O)OCC(=O)Nc2cccc(S(=O)(=O)NC3=NCCCCC3)c2)c(C)c1
  -1%	3%	6	-16%	5%	1%	1	2%
22) O=C(NC1(C(F)(F)F)C(=O)Nc2c1c(=O)[nH]c(=O)n2-c1ccc(Cl)cc1)c1ccccc1F (stereo unspecified)
  1%	0%[57.1 µM]	0	-25%	-8%	11%	-1	2%
23) Cc1ccc2oc(=O)cc(CN3CCOCC3)c2c1
  -8%	4%	-1	-14%	6%	7%	1&-13	-3%
24) O=C(CSc1nnc2ccccn12)Nc1cccc(S(=O)(=O)N2CCOCC2)c1
  -3%	-6%	0	-11%	1%	5%	0	1%
25) Fc1cccc(-c2n[nH]c(=S)n2-c2ccccc2)c1
  -3%	-2%	-7	-10%	-9%	0%	-10	2%
26) N=c1c(C(=O)NCC2CCCO2)cc2c(=O)n3ccccc3nc2n1C1CCCC1 (stereo unspecified)
  0%	868%[activator][57.1 µM]	10	-7%	15%	-13%	-9	-1%
27) COc1ccc(NC(=O)c2cc3c(=O)n(Cc4cccs4)ccc3nc2C)c(OC)c1
  -2%	6%[57.1 µM]	1	-11%	0%	8%	5	-1%
28) Cc1ccc(NCc2nnc(SCC(=O)NCc3ccco3)n2CC2CCCO2)c(C)c1 (stereo unspecified)
  -4%	1%	-5	-7%	-11%	5%	-1	0%
29) CC(C)CCn1c(=O)c2ccccc2n2c(CN(C)Cc3ccccc3)nnc12
  -8%	10%[57.1 µM]	3	-10%	-2%	-2%	2	-2%
30) COc1cccc(C(=O)Nc2ccc(C(=O)OCc3cc(=O)n4nc(C5CC5)sc4n3)cc2)c1
  -1%	-4%[57.1 µM]	-2	-16%	1%	-7%	-5	3%
31) Cc1ccccc1S(=O)(=O)Nc1nc2ccccc2nc1Cl
  -2%	4%[57.1 µM]	1	-26%	-22%	3%	-8	-21%
32) COc1ccc(Nc2nc(CC(C)=O)ns2)cc1OC
  1%	1%	2	11%	5%	4%	-8	3%
33) c1ccc(CNc2nc3c(-c4ccccc4)nnn3c3ccccc23)cc1
  1%	6%	-2	?	2%	-18%	-14	-2%
34) COc1ccccc1NC(=O)c1sc2ncn(CC(=O)N3CCC(C)CC3)c(=O)c2c1C
  -2%	7%	1	-13%	0%	-7%	0	0%
35) Cn1c(=O)c2c(nc3n(-c4ccc(O)cc4)c(-c4ccc(Br)cc4)cn23)n(C)c1=O
  0%	-2%	-23	-18%	5%	15%	0	-1%
36) CN(CC(=O)Nc1ccc(Cl)c(C(F)(F)F)c1)C(=O)c1cccnc1Sc1ccccc1
  -2%	-3%	0	-9%	-13%	2%	2	-6%

Single records, from the list above. Order of values: GRP78 ERSR act | TrxR1 substrate | PI4K2A block | USP1-UAF1 inh | Vif-A3F inh | mIDH1 inhibitor | LDHA inh | Vif-APOBEC3G blk
Cn1c(=O)c2c(nc3n(-c4ccc(O)cc4)c(-c4ccc(Br)cc4)cn23)n(C)c1=O is listed as 0% | -2% | -23 | -18% | 5% | 15% | 0 | -1%
c1ccc(CNc2nc3c(-c4ccccc4)nnn3c3ccccc23)cc1 is listed as 1% | 6% | -2 | ? | 2% | -18% | -14 | -2%
CN(CC(=O)Nc1ccc(Cl)c(C(F)(F)F)c1)C(=O)c1cccnc1Sc1ccccc1 is listed as -2% | -3% | 0 | -9% | -13% | 2% | 2 | -6%
Cc1ccc(C(=O)OCC(=O)Nc2cccc(S(=O)(=O)NC3=NCCCCC3)c2)c(C)c1 is listed as -1% | 3% | 6 | -16% | 5% | 1% | 1 | 2%
COc1ccc(Nc2nc(CC(C)=O)ns2)cc1OC is listed as 1% | 1% | 2 | 11% | 5% | 4% | -8 | 3%

A portion of the library; rates above refer to the full screens.
